LANA-H2A inh: blocks KSHV LANA binding to histone H2A/H2B; cell-free LANA-H2A/H2B peptide, fluorescence polarization; inhibition, % (test concentration not listed); 320,000 tested, 0.6% active; AID 2629; in the data active means inhibition mostly above about 10%, no sharp cut-off; inactive means mostly below about 6.7%;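 further: stock transfer was 7.5 nL into about 10 µL; 0% = median of vehicle wells and 100% = median of positive control wells; one replicate is shown; the record names a cut of 25% in any replicate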
Vif TR-FRET: inhibitors of Vif binding to APOBEC3G peptide, primary screen, biochemical, TR-FRET, GST-Vif 1-94, biotin-A3G peptide, dose response retest (AID 1117319). TR-FRET GST-Vif / biotin-A3G peptide binding; higher % means a stronger effect; test concentration not given here; strong numbers were not always called active. inhibition, %, or IC50 in µM where a hit was titrated. 260,000 tested, 0.57% active;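 active means above the screen mean plus three standard deviations and confirmed in dose response; inconclusive means results disagree or hit not tested in dose response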;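 further: Vif residues 1-94 fused to GST binding biotinylated APOBEC3G peptide 110-148; 0% = full assay without inhibitor and 100% = GST in place of GST-Vif; retest series ran down from 100 µM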
Calb FLC: affects C. albicans growth with fluconazole. AID 1979. C. albicans CaCi-2 (fluconazole-resistant clinical isolate) + fluconazole, Alamar Blue growth, 48 h. growth inhibition, % (no concentration beside the values). 300,000 tested, 0.57% active;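 active means most replicates above 75%; inconclusive means exactly half above 75%; inactive means most below 75%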;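 further: all wells also contain fluconazole at 8 µg/ml as a sub-toxic cotreatment; 0% = median of DMSO wells and 100% = median of geldanamycin control wells; wells of about 8 µL received 7.5 nL stock; the first replicate is given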
HNF4A DNA FP: change in binding of human HNF4 alpha to DNA; P41235; HNF4a-FITC DNA binding, fluorescence polarization, 1 h; activity change, % at 10 µM; 360,000 tested, 0.3% active; AID 1224865; in the data active means activity change above about 30%, passing the limit was not always enough;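 further: controls were the assay level and a saturating level of protein; the project sought stronger binding though the title names inhibitors; some compounds called inactive have numbers as strong as hits; positive values seem to mean higher polarization but the record does not say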
Target sequence (P41235 whole entry, looked up): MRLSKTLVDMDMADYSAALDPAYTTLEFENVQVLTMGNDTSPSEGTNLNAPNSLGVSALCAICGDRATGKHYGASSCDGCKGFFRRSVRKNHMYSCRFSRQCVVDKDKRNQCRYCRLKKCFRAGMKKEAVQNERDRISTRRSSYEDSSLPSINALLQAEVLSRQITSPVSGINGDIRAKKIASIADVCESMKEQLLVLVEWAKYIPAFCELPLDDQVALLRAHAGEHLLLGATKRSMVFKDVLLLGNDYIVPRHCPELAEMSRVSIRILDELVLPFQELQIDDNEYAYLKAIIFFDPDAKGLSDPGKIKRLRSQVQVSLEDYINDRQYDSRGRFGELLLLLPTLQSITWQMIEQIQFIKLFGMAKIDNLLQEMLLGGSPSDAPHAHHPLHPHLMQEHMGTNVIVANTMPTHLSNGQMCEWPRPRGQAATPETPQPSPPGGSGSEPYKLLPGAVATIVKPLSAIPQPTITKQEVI
Beta2AR agonist: agonists of human beta-2 adrenergic receptor inducing internalization | P07550 | Am2.2-beta2AR cells, FAP receptor internalization, flow cytometry; reference of the scale not given here | response, % (concentration not given with the values) | 340,000 tested, 0.43% active;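 active means response above a set limit, near 3 SD of response in nonfluorescent compounds, cut at about 42% in these data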;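 further: stock transfer was 100 nL into about 11 µL; a reference agonist was the positive control; negative values mostly stem from fluorescent compounds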
Target sequence (P07550 whole entry, looked up): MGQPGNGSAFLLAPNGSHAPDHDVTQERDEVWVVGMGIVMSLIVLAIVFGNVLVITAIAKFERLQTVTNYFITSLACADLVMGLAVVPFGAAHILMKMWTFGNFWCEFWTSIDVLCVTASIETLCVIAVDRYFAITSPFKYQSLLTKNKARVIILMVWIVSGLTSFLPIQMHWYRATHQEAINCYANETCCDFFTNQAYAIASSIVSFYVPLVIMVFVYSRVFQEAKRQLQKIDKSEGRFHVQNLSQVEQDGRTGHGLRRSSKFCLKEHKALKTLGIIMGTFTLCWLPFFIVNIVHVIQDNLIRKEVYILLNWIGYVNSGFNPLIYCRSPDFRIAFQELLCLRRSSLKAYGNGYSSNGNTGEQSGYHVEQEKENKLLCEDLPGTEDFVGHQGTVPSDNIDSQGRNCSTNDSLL
ALR inh: inhibitors of human sulfhydryl oxidase ALR | P55789 | purified ALR, DTT oxidation, H2O2 HRP-luminol luminescence | inhibition, % (no concentration beside the values) | 290,000 tested, 3.8% active;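 active means mean and each replicate at 75% or more; inconclusive means only one of the two met; inactive means neither met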;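 further: stock transfer was 7.5 nL into about 7.5 µL; 0% = neutral wells and 100% = wells with inactivated enzyme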
Target sequence (P55789 whole entry, looked up): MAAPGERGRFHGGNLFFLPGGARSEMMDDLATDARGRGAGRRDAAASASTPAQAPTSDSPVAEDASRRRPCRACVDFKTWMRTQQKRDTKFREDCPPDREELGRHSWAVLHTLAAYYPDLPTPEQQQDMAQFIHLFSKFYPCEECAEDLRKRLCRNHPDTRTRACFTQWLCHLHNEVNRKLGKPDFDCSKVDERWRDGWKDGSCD
RanGTP-Impb inh: disruptors of Ran-importin-beta complex formation – biochemical, FRET, CFP-Ran, YFP-importin-beta, homogeneous, primary screen; inhibition, % (test concentration not listed); 300,000 tested, 1.1% active; cell-free CFP-Ran/YFP-importin-beta FRET ratio;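 active means most replicates above 15%; inconclusive means exactly half above 15%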;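 further: 0% = DMSO wells and 100% = Ran loaded with GDP instead of GTP; wells of about 40 µL received 100 nL stock; the first replicate is given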
Numbers without * were called inactive; ? = inconclusive; · = not tested or not shown; & = joins results of further samples. Hits appear at their usual frequency; overall some 6.3% were active at least once.

SMILES	LANA-H2A inh	Vif TR-FRET	Calb FLC	HNF4A DNA FP	Beta2AR agonist	ALR inh	RanGTP-Impb inh
COc1ccc(Nc2nc(N3CCCC3)nc3ccccc23)c(OC)c1	2.7	-17%	0	-4.5	7	2	-1.3
COc1cccc(-c2csc(N3CCN(C(=S)NCC(C)C)CC3)n2)c1	-3.4	-6%	1	0.3	1	3	1.5
COc1ccc(N2C(=O)CC(N3CCN(c4ccc(C(=O)c5cccnc5)cc4)CC3)C2=O)cc1 (centres undefined)	-2.6	3%	2	-1.7	-14	5	3.1
O=C(Nc1cc(Sc2ccccn2)cc([N+](=O)[O-])c1)c1ccc(Cl)cc1	-2.4	4%	0	-3.2	2	-5	0.2
COc1cccc(CNc2nc(C(F)(F)F)nc3ccccc23)c1	4.9	·	4	3.2	-13	-3	1.3
CS(=O)(=O)c1ccc(Cl)c(NC(=O)COC(=O)c2c(Cl)cccc2Cl)c1	5.1	-8%	53	0.9	-3	·	3.7
Cn1c(CNC(=O)c2ccccc2F)cc2ccccc21	0.7	6%	1	-4.5	-3	-20	-0.9
CCn1nc(C)c(/C=N/NC(=O)CSc2ccccn2)c1C	-3.4	-1%	-11	-2.5	5	-28	-0.4
CC1(C)CC(=O)C2=C(C1)Nc1nc(SCCN3CCOCC3)[nH]c(=O)c1C2c1cccs1 (centres undefined)	-3.3	-2%	1	2.3	3	6	1.6
CCC1Oc2ccccc2N(CC(=O)NCCC2=CCCCC2)C1=O (centres undefined)	-9.6	4%	8	0.2	-2	-14	-1.1
CCCc1cc(=O)[nH]c(SCC(=O)N(C)CC(=O)Nc2ccc(F)cc2)n1	·	2%	·	4.2	-1	-2	·
CCOC(=O)CNC(=O)C1(/C=C/c2ccccc2)CC(=O)N1c1ccc(C)cc1 (centres undefined)	0.2	1%	0	-0.3	5	-86	0.9
COc1ccc(NC(=O)CN(C)C(=O)Cc2ccc3c(c2)CCC3)cc1	3.3	·	10	0.7	-4	-3	-5.8
Cc1ccc(NC(=O)c2ccccc2O)cc1	-2.5	16%	-21	0.0	-3	12	-4.5
COC(=O)c1ccc(NC(=O)c2ccco2)cc1	2.1	-2%	-9	0.6	-15	1	-0.9
COc1ccc2cc(Br)ccc2c1CC(=O)NC1CC(C)(C)NC(C)(C)C1	1.2	-1%	30	-3.1	16	-37	5.9
CCOc1ccccc1CNC(=O)C1CCN(c2nnc(C)c3c(C)n(-c4ccc(C)cc4)nc23)CC1	-2.4	·	-4	8.9	53*	-1	0.0
Cc1ccc(NC(=O)NNC(=O)c2cc3ccccc3cc2O)c(C)c1	-9.0	·	82*	-2.0	0	3	-4.7
c1ccc(Nc2nc(N3CCOCC3)c3ccccc3n2)cc1	-1.3	-9%	-24	4.9	-3	49	-4.2
COc1ccccc1C(=O)OCc1ccc2sc(C)nc2c1	-1.2	13%	4	0.7	0	3	-1.1

Look-ups from above:
Value of `COC(=O)c1ccc(NC(=O)c2ccco2)cc1` under Beta2AR agonist: -15
Value of `COc1ccc(NC(=O)CN(C)C(=O)Cc2ccc3c(c2)CCC3)cc1` under RanGTP-Impb inh: -5.8
Value of `COc1cccc(CNc2nc(C(F)(F)F)nc3ccccc23)c1` under LANA-H2A inh: 4.9

Continuation.
SMILES	LANA-H2A inh	Vif TR-FRET	Calb FLC	HNF4A DNA FP	Beta2AR agonist	ALR inh	RanGTP-Impb inh
Cc1c(-n2cc(C(=O)c3cc(Cl)ccc3O)cc(C#N)c2=O)c(=O)n(-c2ccccc2)n1C	7.5	2%	0	13	2	45	?
COc1cccc(SCC2(O)CCN(C(=O)c3ccc(Cl)cc3)CC2)c1	6.9	4%	26	-2.9	-3	37	-2.3
CC/C(Cc1ccccc1)=N\NC(=O)c1cc([N+](=O)[O-])cc([N+](=O)[O-])c1	-3.1	27%	-22	-4.5	1	-36	·
CN1CCN(C(=O)/C(=C/c2ccc(F)cc2)NC(=O)c2ccccc2)CC1	-1.9	53%	2	0.2	4	·	-1.0
O=C(Nc1nnc(-c2ccccc2)o1)c1ccc(Cl)cc1	5.3	9%	2	4.8	17	-7	5.9
NC(=O)CCN1CCCCC1	-8.3	·	-8	2.5	4	3	2.7
CCN(CC)S(=O)(=O)c1cc(NC(=O)C(CC(C)C)NC(N)=O)ccc1C (centres undefined)	-1.5	23%	-12	2.8	-2	-32	-1.7
Cc1ccc(Cl)cc1NC(=O)C[n+]1ccc(Cc2ccc([N+](=O)[O-])cc2)cc1	-8.0	·	-60	3.9	3	15	-1.7
CCC(=O)N1CCc2cc(OC)c(OC)cc2C1COc1ccccc1OC (centres undefined)	·	12%	1	1.8	-12	·	2.4
O=C(COc1ccccc1[N+](=O)[O-])Nc1ccc(Br)cc1	1.5	·	·	-2.0	-2	·	·
Cc1oc(-c2ccccc2F)nc1CSCC(=O)NCc1ccc2c(c1)OCO2	3.7	-4%	-34	4.4	12	98*	-2.3
Cc1ccc(NC(=O)COCC(=O)Nc2ccc(F)cc2)cc1	0.7	·	16	-3.9	16	-3	0.9
COc1ccccc1C(=O)COC(=O)CNC(=O)c1ccc(Br)o1	0.0	·	-9	2.8	-4	-1	-2.9
COc1cc(Nc2nc3ccccc3nc2NS(=O)(=O)c2ccc([N+](=O)[O-])cc2)cc(OC)c1OC	2.2	·	·	-0.5	20	2	3.3
CCOC(=O)C1=C(c2ccc(O)cc2)NC(=O)NC1C (centres undefined)	5.4	·	0	-2.0	4	-3	0.7
CCOCCCNCc1cn(-c2ccc(F)cc2F)nc1-c1ccccc1C	-10	17%	-19	4.3	-8	-1	6.4
N#C/C(=N\Nc1ccc([N+](=O)[O-])cc1)C(=N)N1CCOCC1	2.3	-1%	-1	2.3	7	7	9.9
O=C(NCC1CC1(Cl)Cl)Nc1ccc(Cl)c(Cl)c1 (centres undefined)	-0.6	·	-7	3.0	-1	-1	2.0
N#Cc1ccc(CSc2nnc(Cc3cccs3)n2Cc2ccco2)cc1	4.9	47µM*	19	-2.8	-4	6	0.4
OCc1nc2ccccc2n1C/C=C/c1ccccc1	-1.8	0%	19	-2.6	1	·	-2.1
Cc1cc(Br)ccc1NC(=O)CN1C(=O)CCC1=O	1.6	-1%	19	-2.4	18	24	2.0
CCOC(=O)CSc1nc(-c2ccccc2)nc2ccc(F)cc12	-3.5	1%	-3	0.4	18	0	1.6
Cn1c(NCCN2CCCCC2)cc(=O)n(C)c1=O	4.4	?	0	-3.8	-3	-3	-0.9
CC(=O)c1ccc(-c2nnc(CCC(=O)N(C)Cc3cnc4ccccn34)o2)s1	-5.9	·	0	-3.8	-6	96*	1.6
CSc1ncc(C(=O)Nc2cccc(C)c2C)c(C)n1	-2.9	0%	25	0.2	5	-12	-4.9
Cn1c(=O)oc2cc(S(=O)(=O)Nc3ccc4c(c3)OCO4)ccc21	2.6	13%	-5	2.6	-80	3	-1.7
CN(C)S(=O)(=O)c1cccc(NC(=S)NC23CC4CC(CC(C4)C2)C3)c1	1.0	-7%	-35	3.8	-1	-6	-1.0
O=C(c1cc(F)c(F)c(F)c1F)N1CCN(Cc2ccc3c(c2)OCO3)CC1	4.4	-1%	-19	0.6	1	-15	5.9
O=C(CCC(=O)N1CCOc2ccc(Cl)cc21)NCCCN1CCOCC1	5.3	·	1	3.9	20	1	-3.0
CCOC(=O)c1c(N)sc(C(O)(C(F)(F)F)C(F)(F)F)c1-c1ccc(OC)cc1OC	-0.9	3%&4%	12	-0.2	8	-2	2.5
COC(=O)c1sccc1NC(=O)c1c(C)cc(=O)oc1C	0.3	-5%	-8	-2.5	9	-23	-1.5
CC(C)NC(=O)CS(=O)(=O)c1ccccc1	-3.1	·	-1	-1.2	-15	5	?
Cc1ccn2c(=O)c(C(=O)NC3CCCCC3C)c(O)nc2c1 (centres undefined)	-3.1	0%	19	-3.3	4	-16	4.5
O=C(c1ccccc1)c1nccc2ccccc12	0.4	-3%	-15	-0.1	-4	-28	-1.3
CCNC(=S)NNc1nc(N2CCOCC2)nc(N2CCOCC2)n1	-8.8	22%	2	-4.9	-3	-10	3.9
CC(=O)OCC(=O)Nc1ccccc1C	-5.3	1%	-2	0.2	3	-1	1.1
COc1ccccc1C1CC(c2ccccc2)=NN1S(=O)(=O)c1ccccc1 (centres undefined)	0.5	·	12	1.2	6	-8	-0.3
COc1ccccc1NS(=O)(=O)c1cccc2cccnc12	1.0	73%	3	2.0	4	74	3.8
COc1ccc(CN2CCN(C(C)C)C(CCO)C2)cc1Cn1cncn1 (centres undefined)	0.8	-5%	-19	6.5	1	-11	-4.1
Cc1cccc(CN2C(=O)c3ccccc3S(=O)(=O)c3ccc(C(=O)NCCCN4CCCC4)cc32)c1	·	·	0	1.5	29	-7	2.5
COc1ccc(CCCc2nnc(SCC(=O)Nc3ccc(OC)cc3)o2)cc1	1.2	-8%	1	-6.6	9	6	-3.3
COc1ccc(Cl)cc1NC(=O)CC1S/C(=N/N=C2CCCCCC2)NC1=O (centres undefined)	-7.4	2%	4	-3.7	-1	-4	2.6
COc1ccc(CNC(=O)c2cc(-c3ccc(OC)c(OC)c3)on2)cc1	-8.2	1%	14	-2.7	3	1	6.3
CCC(=O)NCCc1nc2ccccc2n1CC	3.3	-7%	-1	0.0	1	·	3.2
CC(Oc1ccc(Br)cc1)C(=O)NCC1(N2CCCCC2)CCCCC1 (centres undefined)	-5.4	-9%	·	5.5	2	·	·
CC(=O)c1cccc(NC(=S)N2CCN(S(=O)(=O)c3ccc(F)cc3)CC2)c1	0.3	·	-9	2.6	1	2	5.8
Cc1cc(NC(=O)CSc2nc(-c3ccc(Cl)cc3)cs2)no1	0.7	-7%	-25	0.5	-3	-19	1.8
COc1cccc(OC)c1C(=O)NC(=O)Nc1c(F)cc(F)cc1F	-2.1	-7%	11	3.2	6	-3	-4.8
COc1ccc(CNC(=O)COC(=O)CN2C(=O)NC3(CCCC3)C2=O)cc1	2.8	·	·	4.5	-10	·	·
CCN(CC)CCNC(=O)c1ccccc1C(=O)c1ncc[nH]1	1.2	-2%	19	-6.3	-7	-33	0.0
C/C(=N\Nc1cccc([N+](=O)[O-])c1)c1cc(F)ccc1O	-2.1	28%	6	1.1	-2	-3	-5.3
Cc1cc(C)n(CCc2nc(-c3cccs3)cs2)n1	-1.0	25%	-18	-0.4	4	-9	3.5
Cc1ccc(S(=O)(=O)Nc2ccc(C(=O)N3CCCC3)cc2)cc1	-2.5	·	-13	3.3	-4	-10	0.7
Nc1cccc(C#Cc2ccc3c(=O)c4ccccc4oc3c2)c1	2.2	·	·	4.4	48*	-7	·
O=C(NCCCn1ccnc1)c1ccc(Cl)cc1[N+](=O)[O-]	0.4	0%	-13	1.1	-12	-12	-2.2
O=C(O)c1sc2cc(C(F)(F)F)cnc2c1-c1ccccn1	2.8	-9%	-2	-0.7	6	-13	-2.1
Cc1nc(Nc2ccccc2Br)c2nnn(Cc3ccccc3)c2n1	-2.2	-17%	-11	1.7	1	-11	6.0
Cc1cc(N2CCC(C)CC2)nc2ccc(N3C(=O)CCC3=O)cc12	2.2	-1%	1	2.3	-12	-1	2.0
O=C(O)CCC(=O)Nc1ccc(N2CCOCC2)cc1	-3.4	11%	1	-1.1	-2	-5	-0.5
COc1ccc(CCNC(=O)COc2ccc(S(=O)(=O)NC(C)C)cc2Cl)cc1OC	5.3	0%	-12	1.4	4	0	-2.5

Pulled one by one from the entries so far (2):
SMILES	LANA-H2A inh	Vif TR-FRET	Calb FLC	HNF4A DNA FP	Beta2AR agonist	ALR inh	RanGTP-Impb inh
CSc1ncc(C(=O)Nc2cccc(C)c2C)c(C)n1	-2.9	0%	25	0.2	5	-12	-4.9
CCNC(=S)NNc1nc(N2CCOCC2)nc(N2CCOCC2)n1	-8.8	22%	2	-4.9	-3	-10	3.9
